Screens as filed in PubChem.
AID504770 = growth inhibition of E. coli YBA685, primary screen, V. cholerae RctB inhibitors | E. coli YBA685 rctB-dependent plasmid, OD600 growth, 3 h; stronger effect = lower value | z-score (concentration not given with the values) | 0.27% of 130,000 active;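 active = z-score under -2 on both plates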;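 also: wells of about 30 µL received 100 nL stock; score is relative to mean and SD of the test wells; the first replicate is given; strong numbers were not always called active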
Ba CapD inh = Bacillus anthracis CapD inhibitors, primary screen, biochemical, fluorescence intensity; purified CapD enzyme, fluorescence intensity read-out; stronger effect = lower value; some hits fall short of the stated cut; z-score (test concentration not listed); 0.23% of 140,000 active; AID 492967, 2010;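 active = z-score under -4 in either of two replicates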;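 also: stock transfer was 100 nL into about 40 µL; score is relative to mean and spread of the plate; one replicate is shown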
Numbers without * were called inactive; & = joins results of further samples.

How did CCOc1ccc(-n2cc(-c3ccccc3)c3c(N4CCN(CC)CC4)ncnc32)cc1 do in these assays?
AID504770: 0.4; Ba CapD inh: 2.7

What do the screens show for `N/C(=N\N=C\c1ccco1)c1nonc1N`?
AID504770: 1; Ba CapD inh: -2.1

Results for CCCCc1ccc(NC(=O)NCCN2CCNC2=O)cc1 ?
AID504770: 0.45; Ba CapD inh: -1.3

Results for CCCNC(=O)c1ccc2nc(N3CCOCC3)sc2c1 ?
AID504770: 1.6; Ba CapD inh: 0.035

Results for O=C1CN(c2ccccc2)C(=O)N1c1ccccc1 ?
AID504770: -0.65; Ba CapD inh: 0.1

How did CC(Cc1ccccc1)NC(=O)c1ccccc1 (centres undefined) do in these assays?
AID504770: -0.35; Ba CapD inh: 0.49

Results for NC(=O)c1cc(-c2ccc3c(c2)OCO3)no1 ?
AID504770: -0.15; Ba CapD inh: -0.57

What do the screens show for `CC(C)(C)C(=O)NCNc1cc(C(F)(F)F)ccc1Cl`?
Ba CapD inh: -0.34

Results for Cc1ccc(CNC(=O)CCc2nc(-c3ccc(C)cc3)no2)cc1 ?
AID504770: 0.7; Ba CapD inh: 0.055

What do the screens show for `COc1cccc(C2C3=C(CC(C)(C)CC3=O)Nc3ccccc3N2C(=O)C(F)(F)F)c1OC` (centres undefined)?
Ba CapD inh: -0.32

What do the screens show for `COc1cc(/C=c2/sc3nc4ccccc4n3c2=O)cc(OC)c1O`?
AID504770: -0.5; Ba CapD inh: -0.3

How did Cc1nnc(N2CCCC(C(=O)NC(C)C)C2)c2nn(-c3ccccc3)c(C)c12 (centres undefined) do in these assays?
AID504770: 0.2; Ba CapD inh: 7.5

How did O=C(O)CCCn1c(=O)c2cccn2c2ccc(F)cc21 do in these assays?
AID504770: 1.5; Ba CapD inh: 3.8

How did Cc1cc(-c2c(C(=O)N3CCCCC3)c(C)nn2-c2cccc(C(F)(F)F)c2)no1 do in these assays?
AID504770: -0.2; Ba CapD inh: 0.69

How did COc1cc2c(cc1OC)CC1(C2)c2ccccc2CN1C do in these assays?
AID504770: -0.4; Ba CapD inh: 3.7

What do the screens show for `CN1CCC(C#N)(c2ccccc2)CC1`?
AID504770: -0.85

What do the screens show for `O=C(O)c1ccccc1C(=O)Nc1ccc(F)cc1`?
Ba CapD inh: -0.69

Results for O=C(OCC1CCCCCC1)N1CCC(C(O)(c2ccccc2)c2ccccc2)CC1 ?
Ba CapD inh: -0.48

Results for Cc1ccc2c(c1)CCCN2CC(=O)Nc1ccccc1 ?
AID504770: -0.25; Ba CapD inh: -1.1

What do the screens show for `O=C(NCc1cccnc1)c1ccc(COc2cccc3ccccc23)o1`?
AID504770: -0.55; Ba CapD inh: -0.49

Results for CCC(CC)C(=O)N(c1ccc(OC)cc1OC)C1C=CS(=O)(=O)C1 (centres undefined) ?
AID504770: 0.65

What do the screens show for `CSc1nnc(C)c(=O)n1N`?
AID504770: -0.25

How did CCNC(=O)C(C)Sc1ccccc1 (centres undefined) do in these assays?
AID504770: -1.1; Ba CapD inh: 0.3

Results for CCCS(=O)(=O)N1CCN(C(=O)COc2cccc(C)c2)CC1 ?
AID504770: -0.4

How did NC(=O)c1ccc(NC(=O)c2cccc3c2OCCCO3)cc1 do in these assays?
AID504770: -0.8; Ba CapD inh: -0.15

What do the screens show for `CCN1C(=O)/C(=C/C=C2/Sc3cc(NC(C)=O)ccc3N2CC)N(c2ccccc2)C1=S`?
AID504770: 1.5; Ba CapD inh: 1.5

What do the screens show for `CC(Oc1ccc2c(C(F)(F)F)cc(=O)oc2c1)C(=O)NN` (centres undefined)?
AID504770: -3

How did CCCOC(=O)C(C)N1C(=O)/C(=C/c2ccc(OC)cc2)SC1=S (centres undefined) do in these assays?
AID504770: 0; Ba CapD inh: -0.53

Results for COc1ccc(CCNC(=O)NC(C)(C)C)cc1OC ?
AID504770: -0.05; Ba CapD inh: -0.36

How did O=c1[nH]c(CSc2nc3ccccc3o2)nc2c1cnn2-c1ccccc1 do in these assays?
AID504770: 0.4

What do the screens show for `Cc1ccnc2nc(C(=O)NN3C(=O)c4ccccc4C3=O)nn12`?
AID504770: -0.35

What do the screens show for `Brc1ccc(/C=N/c2nc3ccccc3n2CCN2CCCCC2)cc1`?
AID504770: -0.85; Ba CapD inh: -0.54

How did O=c1c2c(nc3cc(-c4ccco4)[nH]n13)CSC2 do in these assays?
AID504770: -0.25; Ba CapD inh: 33

What do the screens show for `CCOC(=O)C1CSC(CC(=O)Nc2ccccc2)C(=O)N1` (centres undefined)?
AID504770: -0.25&-0.15; Ba CapD inh: 1.2&0.28

How did CC(C)(C)c1ccc(NC(=O)Oc2ccccc2N2CCOCC2)cc1 do in these assays?
AID504770: 0.45; Ba CapD inh: -0.94

What do the screens show for `Cc1nc(C#N)c(N/N=C/C=C/c2ccccc2)o1`?
AID504770: 0

What do the screens show for `CN1C(=O)c2ccc(N3CCCC3)cc2C1=O`?
AID504770: 0.2; Ba CapD inh: -0.75

How did CCOC(=O)CN1CC23C=CC(O2)C(C(=O)N2CCCC2)C3C1=O (centres undefined) do in these assays?
AID504770: -1; Ba CapD inh: -0.15

What do the screens show for `CCOC(=O)C(c1ccccc1)C(Nc1ccc(F)cc1)c1ccccn1` (centres undefined)?
AID504770: 2.2; Ba CapD inh: 0.33

How did CCOC(=O)C1=C(O)/C(=C/c2ccc(OC)c(OC)c2)SC1=Nc1cccc(Cl)c1 do in these assays?
Ba CapD inh: 0.63

Results for Cn1c(=O)c2cc(S(=O)(=O)NCCC(=O)NC3CCCCCCC3)ccc2n(C)c1=O ?
AID504770: -0.5; Ba CapD inh: 1.2

How did O=C1NC2(CCN(S(=O)(=O)c3cccs3)CC2)Oc2ccccc21 do in these assays?
AID504770: 0.4; Ba CapD inh: -1.2

How did CCOC(=O)c1cc(Cn2c(=O)c(OCC)nc3cnccc32)on1 do in these assays?
AID504770: 1.1; Ba CapD inh: -0.87

What do the screens show for `CN(C)c1ccc(NC(=O)CC2Sc3ccc(C(F)(F)F)cc3NC2=O)cc1` (centres undefined)?
AID504770: 0.35; Ba CapD inh: -0.07

Results for O=C(Nc1nc2nccc(-c3ccccc3)n2n1)c1ccccc1 ?
AID504770: -0.1; Ba CapD inh: 9.1

What do the screens show for `COc1ccc2c(c1)Cc1sc(NC(=O)c3ccc(OC)c(Br)c3)nc1-2`?
AID504770: 0.25; Ba CapD inh: 0.015

How did O=C1C(Cc2ccccc2)S/C(=N/N=C/c2ccco2)N1c1ccccc1 (centres undefined) do in these assays?
AID504770: 0.25

How did O=C(NCCc1nc2ccccc2n1CCCOc1ccc(Cl)cc1)c1ccco1 do in these assays?
AID504770: 0; Ba CapD inh: 0.49

What do the screens show for `CC1=NN(c2cccc(S(N)(=O)=O)c2)C(=O)C1`?
Ba CapD inh: -0.93

How did COc1ccc(N2CCN(c3ncnc4sc(C(=O)N(C)Cc5ccccc5)c(C)c34)CC2)cc1 do in these assays?
Ba CapD inh: -0.27

How did CN1N=C(C(=O)Nc2ccc3c(c2)CCC3)CCC1=O do in these assays?
AID504770: -0.25

How did O=C(O)CNS(=O)(=O)c1ccc(Cl)cc1 do in these assays?
AID504770: 1.4; Ba CapD inh: -0.29

Results for Cn1nnnc1SC(c1ccccc1)c1ccccc1 ?
AID504770: 2.4; Ba CapD inh: -0.81

Results for O=C(O)c1cccnc1SCC(=O)N1CCCc2ccccc21 ?
AID504770: -0.65; Ba CapD inh: -0.42

How did Cc1cc(OCC(=O)c2ccc(F)cc2)c2c3c(c(=O)oc2c1)CCC3 do in these assays?
AID504770: -0.7; Ba CapD inh: 0.6

Results for CCCCn1nnnc1CSc1nc2sc3c(c2c(=O)n1-c1cccc(OC)c1)CCC3 ?
AID504770: -0.75

What do the screens show for `CC1CCCC(C)N1C(=O)COc1cccc(Br)c1` (centres undefined)?
AID504770: 1.1; Ba CapD inh: -0.55

What do the screens show for `COc1ccc2cc(C(C)C(=O)OCC(=O)N3CCCc4ccccc43)ccc2c1` (centres undefined)?
AID504770: 0.35; Ba CapD inh: 0.86

How did CC(C)(C)c1ccc(S(=O)(=O)N2CCN(Cc3cc4c(cc3O)OCO4)CC2)cc1 do in these assays?
AID504770: 0.1

Results for C[n+]1c(-c2ccccc2)csc1NC1CCCCC1 ?
AID504770: -1.1&2.1; Ba CapD inh: 0.04&-0.98

Results for O=C(O)CCc1nc2cc(C(F)(F)F)ccc2n(Cc2ccccc2)c1=O ?
AID504770: 0.75; Ba CapD inh: 3.3

What do the screens show for `COC(=O)c1cnc(SCc2ccc(C(C)(C)C)cc2)nc1N`?
AID504770: 0.5; Ba CapD inh: -0.3

What do the screens show for `C=CCn1cnc2c(sc3nc(C)cc(C)c32)c1=O`?
AID504770: 0.1; Ba CapD inh: 0.85

Results for CC(SC1=NN2CCCC(=O)N=C2S1)c1ccccc1 (centres undefined) ?
AID504770: -1.1; Ba CapD inh: 0.15

What do the screens show for `O=C(N/N=C/c1ccccc1Cl)C1CC1`?
AID504770: -1.1; Ba CapD inh: -0.6

Results for CC1CCC(NC(=O)C(NC(=O)C2CCC(C)CC2)C(C)C)CC1 (centres undefined) ?
AID504770: 0.05; Ba CapD inh: -0.07

Results for COc1ccc(-c2cc3nccc(C4CCN(C(=O)OC(C)(C)C)CC4)n3n2)cc1 ?
AID504770: 1.6

Results for O=c1[nH]c(=S)[nH]nc1-c1ccc(O)cc1 ?
AID504770: -0.15

Results for O=C1C2C3C=CC(CC3)C2C(=O)N1c1ccc(Cl)c(C(F)(F)F)c1 (centres undefined) ?
Ba CapD inh: -0.14

Results for CC(C)OC(=O)COc1cc2oc(=O)c3c(c2cc1Cl)CCC3 ?
AID504770: -1.1; Ba CapD inh: 2.8

How did Cc1ccc(S(=O)(=O)N(C)CC(=O)N2CCCc3ccccc32)cc1 do in these assays?
AID504770: -0.75; Ba CapD inh: -0.31

Results for COC(CNC(=O)c1cc(S(=O)(=O)N2CC(C)CC(C)C2)ccc1Sc1cccc(Cl)c1)OC (centres undefined) ?
Ba CapD inh: 0.4

What do the screens show for `COc1cccc(-c2noc(CSc3nc4sc5c(c4c(=O)n3C(C)C)CCC5)n2)c1`?
AID504770: -1.4

Results for Oc1ccc2ccccc2c1C=NC1CC1 ?
AID504770: -0.1

What do the screens show for `COc1ccc(/C=C2\C(=O)C3CCN2CC3)cc1`?
AID504770: 0.2; Ba CapD inh: -2.8

How did CC(=Nc1ccc(S(=O)(=O)N2CCCC2)cc1)c1ccccc1 do in these assays?
AID504770: -0.05; Ba CapD inh: -0.43

What do the screens show for `CCOC(=O)c1cc(-c2ccnn2C(=O)c2ccccc2)on1`?
AID504770: 2; Ba CapD inh: 9.7

How did Cc1ccc(Cn2c(SCC#N)nc3ccccc3c2=O)cc1 do in these assays?
AID504770: 2

Results for CSc1ccccc1C(=O)Nc1ccc2c(c1)N(C(C)=O)c1ccccc1CC2 ?
Ba CapD inh: -0.17

How did C=CCn1c(NC(=O)CC)nc2ccccc21 do in these assays?
AID504770: -0.85

How did COc1ccc(NC(=O)CSc2nc3ccccc3c(=O)n2CCC(=O)N2CCN(c3ccccc3)CC2)c(OC)c1 do in these assays?
Ba CapD inh: -0.02

How did CC(C)COC(=O)N1CCCC1C(=O)Nc1ccccc1 (centres undefined) do in these assays?
AID504770: -0.75; Ba CapD inh: -0.94

What do the screens show for `CN(CC1COc2ccccc2O1)S(=O)(=O)c1ccc(-c2cc(C(F)(F)F)no2)s1` (centres undefined)?
AID504770: 0.15; Ba CapD inh: -0.2

What do the screens show for `CCc1nc2c(cnn2-c2ccccc2)c(=O)[nH]1`?
AID504770: -3.8

Results for O=c1[nH]c2ccccc2c(=O)n1C1CCCCC1 ?
AID504770: -0.55; Ba CapD inh: 0.4

What do the screens show for `Cn1cc(-c2ccc(C(=O)NCCN3CCOCC3)cn2)cn1`?
Ba CapD inh: 0.66

What do the screens show for `COC(=O)c1c(C)csc1NC(=O)CSCc1c(F)cccc1Cl`?
AID504770: 1; Ba CapD inh: 0.24

What do the screens show for `Cc1nc2onc(OCC(=O)OCc3ccccc3)c2c(C)c1C`?
AID504770: -0.45; Ba CapD inh: -0.025

What do the screens show for `CCC(=O)c1ccc(OCC(=O)NC2CCCCC2C)cc1` (centres undefined)?
AID504770: 2

Results for Cc1ccc(-c2nn3c(Cn4cnc5ccccc54)nnc3s2)cc1C ?
AID504770: 0.2; Ba CapD inh: 0.62

Results for CCCc1cc2c(=O)c(-c3nc4ccccc4n3C)coc2cc1O ?
AID504770: -0.75; Ba CapD inh: 0.095

Compounds listed so far with a Cl atom:
What do the screens show for `CC(C)(C)C(=O)NCNc1cc(C(F)(F)F)ccc1Cl`?
Ba CapD inh: -0.34

How did CCOC(=O)C1=C(O)/C(=C/c2ccc(OC)c(OC)c2)SC1=Nc1cccc(Cl)c1 do in these assays?
Ba CapD inh: 0.63

How did O=C(NCCc1nc2ccccc2n1CCCOc1ccc(Cl)cc1)c1ccco1 do in these assays?
AID504770: 0; Ba CapD inh: 0.49

How did O=C(O)CNS(=O)(=O)c1ccc(Cl)cc1 do in these assays?
AID504770: 1.4; Ba CapD inh: -0.29

What do the screens show for `O=C(N/N=C/c1ccccc1Cl)C1CC1`?
AID504770: -1.1; Ba CapD inh: -0.6

Results for O=C1C2C3C=CC(CC3)C2C(=O)N1c1ccc(Cl)c(C(F)(F)F)c1 (centres undefined) ?
Ba CapD inh: -0.14

Results for CC(C)OC(=O)COc1cc2oc(=O)c3c(c2cc1Cl)CCC3 ?
AID504770: -1.1; Ba CapD inh: 2.8

Results for COC(CNC(=O)c1cc(S(=O)(=O)N2CC(C)CC(C)C2)ccc1Sc1cccc(Cl)c1)OC (centres undefined) ?
Ba CapD inh: 0.4

What do the screens show for `COC(=O)c1c(C)csc1NC(=O)CSCc1c(F)cccc1Cl`?
AID504770: 1; Ba CapD inh: 0.24

Of the compounds above, three have bromine:
What do the screens show for `Brc1ccc(/C=N/c2nc3ccccc3n2CCN2CCCCC2)cc1`?
AID504770: -0.85; Ba CapD inh: -0.54

What do the screens show for `COc1ccc2c(c1)Cc1sc(NC(=O)c3ccc(OC)c(Br)c3)nc1-2`?
AID504770: 0.25; Ba CapD inh: 0.015

What do the screens show for `CC1CCCC(C)N1C(=O)COc1cccc(Br)c1` (centres undefined)?
AID504770: 1.1; Ba CapD inh: -0.55

Not all compounds are listed; the hit share may differ from the screen's.
